Compound activity: PubChem BioAssay, National Center for Advancing Translational Sciences (NCATS)
PINK1 modulator = A Quantitative High throughput Screen to Identify Chemical Modulators of PINK1 Expression. 410,000 compounds, 0.2% hits. PINK1 immunofluorescence, high-content cytometry, 24 h. Potency, µM (doses to about 76.6 µM), for the others: at the highest dose activation (PINK1 increase), most hits filed as activators. AID 624263, 2012; active = well fitted activation curve with a large enough effect; inconclusive = small, poorly fitted or top-dose-only effect; inactive = flat fitted curve, though single readings scatter; cell line not stated here;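 further: potency means the concentration at half of the fitted maximal effect; % of control where 0% means no effect; nearly all actives have a fitted effect of over 65% in size; a mitochondrial uncoupler was the plate control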
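PINK1 protein level read as immunofluorescence by microplate cytometer in a fixed, stained stable cell line after 24 h exposure to five compound concentrations, with CCCP as control.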
D2 potentiator = Beta-Arrestin HTS for Positive Allosteric Modulators of the Human D2 Dopamine Receptor: Potentiators | AID 624464, 2012 | 360,000 compounds, 0.23% hits | potentiation, % (test concentration not listed) | DiscoveRx D2 beta-arrestin cells, luminescence, 90 min; 100% = 57 uM dopamine signal | D(2) dopamine receptor (Homo sapiens), P14416; active = potentiation of 50% or more; inconclusive = 30% to 50%; inactive = 30% or less;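 further: compound concentration not given in the record; tested on top of an EC20 dose of dopamine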
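PathHunter D2 cells, attached overnight at 37 deg C, received compound in DMSO plus dopamine at EC20 (50 nM final) for 90 min at 37 deg C. Beta-arrestin recruitment was read as luminescence after 1 h with detection reagent at ambient temperature.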
D2 agonist = Beta-Arrestin HTS for Positive Allosteric Modulators of the Human D2 Dopamine Receptor: Agonists; DiscoveRx PathHunter D2 beta-arrestin, luminescence, 90 min; 100% = 57 uM dopamine signal; D(2) dopamine receptor (Homo sapiens), P14416; 360,000 compounds, 0.084% hits; activation, % (no concentration beside the values); in the data active = activation above about 40%; inconclusive = about 15% to 40%; inactive = below about 15%; further: compound concentration not given in the record; the text of the record calls up to 30% inactive
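DiscoveRx PathHunter D2 beta-arrestin cells (2,100/well) attached overnight, then compound-stimulated 90 min at 37 C in HBSS/10 mM HEPES/0.1% Tween-20 buffer; beta-galactosidase complementation read by luminescence after 1 h at ambient temperature. Dopamine 57 uM final (EC100) as control.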
Six1-Eya2 blk = qHTS Assay for Inhibitors of the Six1/Eya2 Interaction. Homeobox protein SIX1 (Homo sapiens) + Protein phosphatase EYA2 (Homo sapiens), …. AlphaScreen GST-Six1/His-Eya2 binding, biochemical; stronger effect = lower value; control for the full effect not named in the record. activity change, % (no concentration beside the values). 360,000 compounds, 0.56% hits. AID 651725, 2012; in the data active = activity change below about -65%; inconclusive = about -30% to -65%; inactive = above about -30%; further: on the % scale 0 is the no-effect control and ±100 the full control effect
Target sequence (O00167 whole entry, looked up): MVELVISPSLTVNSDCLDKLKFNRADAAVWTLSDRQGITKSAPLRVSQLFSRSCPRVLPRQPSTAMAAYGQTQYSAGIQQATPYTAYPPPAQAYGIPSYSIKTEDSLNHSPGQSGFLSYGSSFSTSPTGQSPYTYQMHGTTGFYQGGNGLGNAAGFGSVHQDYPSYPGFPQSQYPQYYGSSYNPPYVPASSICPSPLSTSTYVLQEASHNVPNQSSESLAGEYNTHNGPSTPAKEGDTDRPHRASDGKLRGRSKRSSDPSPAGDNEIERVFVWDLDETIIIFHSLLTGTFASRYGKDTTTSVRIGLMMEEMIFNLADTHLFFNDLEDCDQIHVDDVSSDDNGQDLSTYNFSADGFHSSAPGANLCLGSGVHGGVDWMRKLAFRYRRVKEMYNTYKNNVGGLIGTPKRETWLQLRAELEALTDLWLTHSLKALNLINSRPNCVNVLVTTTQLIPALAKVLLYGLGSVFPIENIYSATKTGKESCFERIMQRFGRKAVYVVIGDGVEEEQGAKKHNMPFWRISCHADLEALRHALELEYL
Target sequence (Q15475 whole entry, looked up): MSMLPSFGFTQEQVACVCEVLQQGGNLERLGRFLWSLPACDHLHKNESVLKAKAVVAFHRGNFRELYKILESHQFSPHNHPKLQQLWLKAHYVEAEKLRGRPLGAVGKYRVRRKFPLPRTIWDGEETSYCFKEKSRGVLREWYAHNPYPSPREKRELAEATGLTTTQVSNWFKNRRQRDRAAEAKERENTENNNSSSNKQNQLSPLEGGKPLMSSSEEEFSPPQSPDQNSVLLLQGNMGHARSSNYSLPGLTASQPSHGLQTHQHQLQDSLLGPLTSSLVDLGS
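GST-Six1 + His-Eya2 (5X stock: 250/500 nM); Tris pH 8.0, 300 mM NaCl, 0.05% BSA, 0.02% Tween 20; GSH donor/Ni acceptor beads; 1 h 37 °C dark; AlphaScreen readout.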
TRPML1 inh = qHTS for Inhibitors of the Human Mucolipin Transient Receptor Potential 1 (TRPML1). Mucolipin-1 (Homo sapiens), Q9GZU1. TRPML1-inducible cells, Ca2+ dye fluorescence, FDSS; stronger effect = lower value; inhibition of EC80 agonist-evoked calcium signal. activity change, negative = inhibition, % (concentration not given with the values). 390,000 compounds, 0.02% hits; in the data active means activity change below about -50%; inconclusive means about -30% to -50%; inactive means above about -30%;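 further: stimulus is agonist 54-4 at its EC80 concentration; on the % scale 0 is the no-effect control and ±100 the full control effect; the text of the record puts the active cut at -80%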
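Tet-induced TRPML1-DL cells loaded with Ca8 no-wash calcium dye were read kinetically on FDSS. Compound addition was followed by EC80 agonist 54-4 (4 uM final); inhibition was read over 110 s.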
TRPML1 ag = qHTS for Agonists of the Human Mucolipin Transient Receptor Potential 1 (TRPML1) | Mucolipin-1 (Homo sapiens), Q9GZU1 | TRPML1-expressing cells, Ca2+ dye fluorescence, FDSS; host cell line not named in the record; reference of the full effect not given here | activation, % (concentration not given with the values) | 410,000 compounds, 0.12% hits; in the data active = activation above about 50%; inconclusive = about 30% to 50%; inactive = below about 30%; further: 0% is about no effect; the text of the record puts the active cut at 80%
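TRPML1-DL cells, Tet-induced overnight (~16 h, 37 degrees C), loaded 45-90 min at room temperature with Ca8 no-wash calcium dye plus quencher. FDSS fluorescence: 10 s baseline, compound pin-transfer, 110 s agonist read, then EC80 54-4 (4uM final) and 110 s antagonist read.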
The depositor's hits bear a star; ? = inconclusive; nt = not tested or not shown; [ ] = remark or other dose.

SMILES | PINK1 modulator | D2 potentiator | D2 agonist | Six1-Eya2 blk | TRPML1 inh | TRPML1 ag
CCN1CCN(C(c2ccccc2OC)c2nnnn2C2CCCCC2)CC1 (stereo unspecified) | -2.0% | -31 | -2.1 | 9 | -4 | -0.4
CCc1noc(C)c1C(=O)OCC(=O)N(CC)c1c(N)n(Cc2ccccc2)c(=O)[nH]c1=O | 0.1% | -16 | -2.7 | 0 | -5 | 1.6
COc1ccc(-n2nnnc2CNC(=O)C(=O)c2c[nH]c3ccccc23)cc1 | 1.5% | -1 | -0.2 | 8 | 6 | 0.5
COC[C@@H]1CCCN1[C@H]1CS(=O)(=O)N[C@@H]1COCc1ccccc1 | 0.3% | -8 | -4.4 | 5 | nt | -0.5
Cc1nc(SCc2c(F)cccc2Cl)c2c(=O)n(C)c(=O)n(C)c2n1 | 10% | -2 | -1.1 | 3 | 2 | -0.1
CCCCn1c2nc3ccccc3nc2c2c(=N)oc(C)nc21 | ? | 7 | -0.7 | -11 | -1 | 0.0
CC(C)(C)OC(=O)N1CCC(CC2CC(c3ccc(Cl)cc3)=NO2)(C(=O)NCC2CCCCC2)CC1 (stereo unspecified) | -0.4% | -4 | -0.8 | 4 | -27 | 1.1
O=C(N/N=C/c1ccccc1OCC(=O)N1CCCC1)C(=O)Nc1ccccc1F | 3.0% | 2 | -3.1 | 2 | 18 | -0.6
COc1ccc2c(-c3ccccc3)cc3nnnn3c2c1 | -4.8%[38.3 µM] | -5 | 1.3 | 5 | 24 | 1.6
CC(C)c1ccc(N(C(=O)c2snc(C(N)=O)c2N)C(C(=O)NCC2CCCO2)c2ccc(N(C)C)cc2)cc1 (stereo unspecified) | 9.0% | 24 | 3.4 | ? | 14 | 0.5
COc1ccc(CN(CC(=O)NCc2ccco2)C(=O)CCC(=O)Nc2ccccn2)cc1 | 2.6% | -33 | 0.4 | -8 | 15 | 0.3
Cc1cc(C(F)(F)F)nc(CCNC(=O)C2CCC(=O)N(Cc3cccc(F)c3)C2)n1 (stereo unspecified) | ? | 6 | -2.4 | 0 | ? | 2.1
O=C(COC(=O)Cc1cccs1)Nc1ccc(F)c(F)c1F | 0.2% | -5 | -0.2 | 3 | 5 | 0.8
COc1cc(-c2cnc3c(NC=O)cc(-c4ccsc4)cn23)cc(OC)c1OC | -0.8% | -2 | 4.1 | -28 | nt | -0.9
Cc1c(-c2ccccc2)[n+](=O)c(-c2ccco2)c(C)n1[O-] | -10%[38.3 µM] | -15 | -1.6 | 19 | -5 | -0.2

Single records, from the list above. Order of values: PINK1 modulator | D2 potentiator | D2 agonist | Six1-Eya2 blk | TRPML1 inh | TRPML1 ag
Results for O=C(N/N=C/c1ccccc1OCC(=O)N1CCCC1)C(=O)Nc1ccccc1F → 3.0% | 2 | -3.1 | 2 | 18 | -0.6
Results for Cc1nc(SCc2c(F)cccc2Cl)c2c(=O)n(C)c(=O)n(C)c2n1 → 10% | -2 | -1.1 | 3 | 2 | -0.1
Results for COc1ccc(-n2nnnc2CNC(=O)C(=O)c2c[nH]c3ccccc23)cc1 → 1.5% | -1 | -0.2 | 8 | 6 | 0.5
Results for O=C(COC(=O)Cc1cccs1)Nc1ccc(F)c(F)c1F → 0.2% | -5 | -0.2 | 3 | 5 | 0.8
Results for COc1cc(-c2cnc3c(NC=O)cc(-c4ccsc4)cn23)cc(OC)c1OC → -0.8% | -2 | 4.1 | -28 | nt | -0.9

The list continues:
SMILES | PINK1 modulator | D2 potentiator | D2 agonist | Six1-Eya2 blk | TRPML1 inh | TRPML1 ag
O=C(OCC(=O)N1CCc2ccccc21)c1ccc[nH]c1=O | -0.8% | 0 | -1.0 | 2 | -6 | -0.2
CC(C)CC1C(C#N)=C(N)OC2=C1C(=O)CC(c1ccccc1)C2 (stereo unspecified) | 1.1% | -10 | -0.1 | 2 | 20 | 0.6
Cc1c(Br)c(=O)oc2c(Br)c(O)c(O)cc12 | -0.2% | 16 | -1.7 | -26 | 5 | -0.1
COC(=O)C1=C(C(=O)OC)[C@@H]2N(C)c3ccccc3[C@@]23C[C@@H](C(=O)OC)N(C(C)=O)C3=N1 | -1.3% | -9 | -1.5 | 6 | 1 | -0.5
O=C(COc1ccc([N+](=O)[O-])cc1)Nc1ccccc1C(=O)NC1CC1 | 0.6% | 1 | 1.0 | 4 | 19 | 0.5
O=C(Cn1ncc2c3ccccc3n(Cc3cccc(Cl)c3)c2c1=O)NCc1cccs1 | 0.2% | nt | nt | nt | ? | 0.3
CC1=C2C3OC(=O)C(C)[C@@H]3CC[C@](C)(O)C2C2C3C4C5(C12)[C@H]1OC(=O)[C@@H](C)C1CC[C@]4(C)O[C@]5(C)[C@@H]3O (stereo partly specified) | 0.6% | 2 | 0.1 | -6 | 0 | -0.4
CN(C)S(=O)(=O)c1ccc(C(=O)OCC(=O)Nc2ccc3c(c2)OCO3)cc1 | -0.8% | -3 | 4.3 | 15 | -6 | 0.2
Cc1ccc(S(=O)c2snnc2C)cc1 (stereo unspecified) | -0.9% | 5 | 0.2 | 7 | 5 | -0.5
CCCN(C(=O)c1cc2c(s1)CCC2)c1c(N)n(Cc2ccccc2)c(=O)[nH]c1=O | -0.4% | -4 | 8.0 | -3 | 17 | 0.1
Cc1ccc(S(=O)(=O)N[C@H](C(=O)OCC(=O)NC(=O)NCc2ccco2)C(C)C)cc1 | 0.2% | -2 | -0.2 | 0 | 11 | 0.8
CCOCCn1ccc2c(OCC(=O)Nc3ccc(C(N)=O)cc3)cccc2c1=O | 0.4% | nt | nt | nt | -9 | -1.0
CC(C)CN(C(=O)COC(=O)CCc1c[nH]c2ccccc12)c1c(N)n(Cc2ccccc2)c(=O)[nH]c1=O | -1.0% | -4 | -2.2 | -8 | 17 | -0.2
COc1cc(NC(=O)Nc2ccccc2)c(OC)cc1NC(=O)CN1CCCCC1 | 0.0% | -18 | -3.3 | ? | -6 | 3.2
Cc1ccc2c(c1)[C@H]1[C@H](CO2)[C@H](c2ccccc2)[C@]2(C)C(=O)N(Cc3ccc(F)cc3)CC(=O)N12 | 0.9% | -9 | -3.1 | -7 | 11 | 2.0
O=C(COc1ccccc1)NCC1CCCO1 (stereo unspecified) | ? | -9 | -0.2 | -2 | 25 | 0.4
CCn1ncc(Cl)c1C(=O)Nc1cc([N+](=O)[O-])ccc1OC | 25% | 4 | -5.4 | 6 | -7 | 0.8
CC(C(=O)Nc1ccncc1)(c1ccccc1)c1ccccc1 | -1.5% | -3 | -3.3 | -1 | -8 | 2.6
O=C(c1ccc(-c2cc(Cl)ccc2Cl)o1)N1CCOCC1 | -1.1% | -2 | -3.3 | 2 | -3 | 1.4
CCCCNc1cnn(-c2ccccc2)c(=O)c1Cl | 2.5% | -4 | -1.9 | 6 | -9 | -0.9
COc1cc(CNC(=O)c2ccc3oc(C(C)C)nc3c2)cc(OC)c1 | 1.6% | -1 | 2.4 | -2 | -2 | 1.5
CC(Cc1ccccc1)NC(=O)c1ccc([N+](=O)[O-])cc1 (stereo unspecified) | -1.5% | -22 | 0.4 | 7 | -2 | 2.2
CCCOc1ccc(C(O)(CCN2CCCCC2)c2ccccc2OC)cc1 (stereo unspecified) | 0.2% | -20 | -7.5 | -6 | nt | nt
COC(=O)c1c(C)oc(C)c1S(=O)(=O)NC(c1ccccc1)c1ccccc1 | 7.5% | 0 | -4.4 | 5 | -9 | -0.1
Cc1cccc(NC(=O)CN2CCN(C(=O)C3CCCO3)CC2)c1C (stereo unspecified) | 0.3% | -5 | -0.9 | 10 | -5 | 0.1
C#CCn1c2ccccc2c(=O)n1C(C)CBr (stereo unspecified) | 0.8% | nt | nt | 3 | nt | -0.7
C[C@H]1CN([C@@H](C)CO)C(=O)c2cccc(NS(=O)(=O)c3ccc(F)cc3)c2O[C@H]1CN(C)S(=O)(=O)c1cn(C)cn1 | 0.6% | nt | 0.8 | 5 | -9 | -0.1
COc1cc(C(C(=O)NCc2ccccc2)N(Cc2ccco2)C(=O)c2cnccn2)cc(OC)c1OC (stereo unspecified) | 1.7% | -5 | -0.4 | 4 | -3 | -0.6
CCOC(=O)C1(C)NC(c2ccccc2F)C2C(=O)N(CC)C(=O)C21 (stereo unspecified) | 0.9% | -3 | -2.5 | 3 | 12 | 1.2
Cc1ccc(S(=O)(=O)N2CCN(C(=O)COC(=O)CSc3ccc(C)c(C)c3)CC2)c(C)c1 | -0.9% | 2 | -0.9 | -8 | -12 | 0.2
C[C@@H]1CCC[C@H](C)N1Cc1nc(Cc2ccccc2Cl)no1 | 11% | -14 | -2.6 | 0 | 9 | 0.4
Cc1nc(S/C(=C/c2ccc(OCc3ccc(C(=O)O)cc3)cc2)C(=O)O)n[nH]1 | -1.1% | -3 | -2.4 | -3 | 8 | 2.1
CCOc1ccc(CCNC(=O)CN2C(=O)C(CC)Oc3ccccc32)cc1OCC (stereo unspecified) | 2.3% | nt | nt | nt | 10 | 0.5
COc1cccc(CN(C)CC(=O)Nc2cc3oc4ccccc4c3cc2OC)c1 | 1.6% | -23 | -2.5 | -5 | 12 | 0.0
COc1ccccc1C(=O)NCCC(=O)OCC(=O)Nc1ccc(S(N)(=O)=O)cc1 | 1.2% | -5 | 5.8 | 0 | -9 | -0.6
CC(NC(=O)COc1cccnc1[N+](=O)[O-])c1ccc(F)cc1 (stereo unspecified) | -0.5% | -1 | 1.9 | 0 | 6 | -0.8
Cc1cccc(SC2CCN(Cc3nc(CC4CC4)no3)CC2)c1 | 1.6% | 5 | 2.6 | 24 | 5 | 0.3
CCOC(=O)C1CCN(C(=O)Cc2c(F)cccc2Cl)CC1 | nt | -19 | -2.6 | 4 | -3 | 0.6
Clc1ccc(CN2CCSCC2)cc1Cl | 5.6% | -1 | -4.1 | -2 | 4 | 0.5
CC(=O)c1cn(CCOc2cc(C)ccc2C)c2ccccc12 | 6.4% | 1 | 2.6 | 8 | 23 | 0.8
COc1cccc(-c2nc(CS(=O)(=O)CC(=O)NCC(C)c3ccccc3)c(C)o2)c1 (stereo unspecified) | 0.9% | -15 | -6.8 | -14 | 4 | 0.8
COCCC(=O)Nc1ccc2c(c1)CN(C(=O)CCOC)CC2 | 0.5% | -2 | 2.3 | 6 | 17 | 0.2
